From PubChem
Six1-Eya2 inh: blocks human Six1 binding to Eya2; 360,000 tested, 0.56% active; AID 651725; activity change, % (concentration not given with the values); Q15475+O00167; AlphaScreen GST-Six1/His-Eya2 binding, biochemical; hits give low values; control for the full effect not named in the record; in the data active = activity change below about -65%; inconclusive = about -30% to -65%; inactive = above about -30%; note: % is set by controls: 0 for no effect and ±100 for the full control effect
Target sequence (O00167 whole entry, looked up): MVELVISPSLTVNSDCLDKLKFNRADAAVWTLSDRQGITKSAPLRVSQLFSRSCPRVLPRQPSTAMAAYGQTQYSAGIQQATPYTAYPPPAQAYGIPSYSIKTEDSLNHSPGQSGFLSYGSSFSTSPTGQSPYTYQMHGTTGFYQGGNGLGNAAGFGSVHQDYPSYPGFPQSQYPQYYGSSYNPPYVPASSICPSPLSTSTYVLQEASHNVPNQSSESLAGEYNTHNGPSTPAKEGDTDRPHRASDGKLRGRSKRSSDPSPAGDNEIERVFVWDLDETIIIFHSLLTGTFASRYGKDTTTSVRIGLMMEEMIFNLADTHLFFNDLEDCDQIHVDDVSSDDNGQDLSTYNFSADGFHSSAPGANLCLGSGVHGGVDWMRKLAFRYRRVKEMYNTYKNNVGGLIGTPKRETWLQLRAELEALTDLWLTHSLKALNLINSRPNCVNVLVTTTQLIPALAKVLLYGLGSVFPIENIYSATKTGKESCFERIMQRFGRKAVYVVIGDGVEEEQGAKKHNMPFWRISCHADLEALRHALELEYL
Target sequence (Q15475 whole entry, looked up): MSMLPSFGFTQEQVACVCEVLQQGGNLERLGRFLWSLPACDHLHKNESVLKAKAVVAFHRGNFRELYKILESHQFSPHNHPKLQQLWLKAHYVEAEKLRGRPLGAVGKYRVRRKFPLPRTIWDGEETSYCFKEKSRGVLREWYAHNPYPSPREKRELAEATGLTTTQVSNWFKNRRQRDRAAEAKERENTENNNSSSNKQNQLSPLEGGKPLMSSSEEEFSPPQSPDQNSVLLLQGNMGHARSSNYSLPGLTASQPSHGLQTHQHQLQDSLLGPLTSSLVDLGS
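GST-Six1 + His-Eya2 (5X stock: 250/500 nM); Tris pH 8.0, 300 mM NaCl, 0.05% BSA, 0.02% Tween 20; GSH donor/Ni acceptor beads; 1 h 37 °C dark; AlphaScreen readout.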
PINK1 modulator: PINK1 expression modulation; PINK1 immunofluorescence, high-content cytometry, 24 h; Potency, µM (doses to about 76.6 µM), inactives show at the highest dose activation (PINK1 increase), hits mostly activators; 410,000 tested, 0.2% active; active = well fitted activation curve with a large enough effect; inconclusive = small, poorly fitted or top-dose-only effect; inactive = flat fitted curve, though single readings scatter; cell line not stated here;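 note: potency is the fitted concentration of half-maximal effect; % of control where 0% means no effect; nearly all actives have a fitted effect of over 65% in size; a mitochondrial uncoupler was the plate control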
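Measures PINK1 amount and localization on or inside mitochondria by immunofluorescence. Stable cells get compounds at 5 concentrations for 24 hours before fixation and staining; CCCP controls included.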
TRPML1 agonist: agonists of human TRPML1 channel | Q9GZU1 | TRPML1-expressing cells, Ca2+ dye fluorescence, FDSS; host cell line not named in the record; reference of the full effect not given here | activation, % (concentration not given with the values) | 410,000 tested, 0.12% active | AID 624414; in the data active = activation above about 50%; inconclusive = about 30% to 50%; inactive = below about 30%; note: 0% is about no effect; the text of the record puts the active cut at 80%
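TRPML1-DL cells, Tet-induced overnight (~16 h, 37 degrees C), loaded 45-90 min at room temperature with Ca8 no-wash calcium dye plus quencher. FDSS fluorescence: 10 s baseline, compound pin-transfer, 110 s agonist read, then EC80 54-4 (4uM final) and 110 s antagonist read.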
CtBP-E1A inh: CtBP/E1A binding inhibition | AlphaScreen GST-E1A/His-CtBP binding, 1536-well; hits give low values; control for the full effect not named in the record | activity change, % (concentration not given with the values) | 340,000 tested, 0.49% active | AID 651724; in the data active means activity change below about -65%; inconclusive means about -30% to -65%; inactive means above about -30%; note: % is set by controls: 0 for no effect and ±100 for the full control effect
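Steps: dispense buffer (Tris pH 8.0, NaCl 300 mM, TCEP 1 mM, BSA, Tween 20); add 5X protein mix (GST-E1A, His-CtBP, 125 nM each); pin 23 nL compound; 2 h at 37 °C, dark; add 5X beads (50 ug/mL); 1 h; read.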
D2 PAM: positive allosteric modulators of human D2 dopamine receptor; P14416; DiscoveRx D2 beta-arrestin cells, luminescence, 90 min; 100% = 57 uM dopamine signal; potentiation, % (no concentration beside the values); 360,000 tested, 0.23% active; active = potentiation of 50% or more; inconclusive = 30% to 50%; inactive = 30% or less;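 note: compound concentration not given in the record; tested on top of an EC20 dose of dopamine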
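PathHunter D2 cells, attached overnight at 37 deg C, received compound in DMSO plus dopamine at EC20 (50 nM final) for 90 min at 37 deg C. Beta-arrestin recruitment was read as luminescence after 1 h with detection reagent at ambient temperature.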
D2 ag: activates the human D2 dopamine receptor; P14416; DiscoveRx PathHunter D2 beta-arrestin, luminescence, 90 min; 100% = 57 uM dopamine signal; activation, % (concentration not given with the values); 360,000 tested, 0.084% active; AID 624465; in the data active = activation above about 40%; inconclusive = about 15% to 40%; inactive = below about 15%; note: compound concentration not given in the record; the text of the record calls up to 30% inactive
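DiscoveRx PathHunter D2 beta-arrestin cells (2,100/well) attached overnight, then compound-stimulated 90 min at 37 C in HBSS/10 mM HEPES/0.1% Tween-20 buffer; beta-galactosidase complementation read by luminescence after 1 h at ambient temperature. Dopamine 57 uM final (EC100) as control.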
* = called active by the depositor; ? = inconclusive; . = not tested or not shown; & = joins results of further samples; [ ] = dose if it differs, or a comment. Rows are unselected. Share with any hit: about 1.3%.

smiles	Six1-Eya2 inh	PINK1 modulator	TRPML1 agonist	CtBP-E1A inh	D2 PAM	D2 ag
O=C(O)c1cc([N+](=O)[O-])c(NCc2cccnc2)c([N+](=O)[O-])c1	6	-0.2%	0.5	0	-4	4.8
O=C(c1ccc([N+](=O)[O-])s1)N1CCN(c2ccc(C(F)(F)F)cn2)CC1	-5	2.8%	-1.0	-5	8	4.4
COc1ccc(CS(=O)(=O)/C(Cl)=C(/Cl)C(=O)Nc2ccc(OC)nc2)cc1	-14	-3.0%	1.6	-17	-31	0.7
COc1ccc(-c2cc(C(=O)Nc3c(C)nn(Cc4ccccc4Cl)c3C)no2)cc1	1	?	-0.3	-3	-7	1.3
Cn1c(=O)c(=O)n(C)c2cc(S(=O)(=O)CCC(=O)NCc3ccccc3)ccc21	-7	-0.7%	-0.7	-10	-4	-2.8
CCOC(=O)C1=C(C)NC(=S)NC1c1ccsc1 (stereo not drawn)	4	0.3%	2.8	11	0	-6.3
COc1cccc(C(=O)N2CCOCC2)c1OC	14	1.1%	0.0	0	-3	-2.8
COc1cc(NC(=O)c2csc(N)n2)cc(C(=O)Nc2cccc(C(F)(F)F)c2)c1	-3&-3	-2.7%&-0.5%	0.6&2.0	0&-1	-8&-8	2.8&1.4
COc1cc(C2Oc3ccccc3C=C2[N+](=O)[O-])cc(OC)c1OC (stereo not drawn)	-4	-0.6%	1.7	.	-39	-5.6
CSCC[C@H](NC(=O)Nc1cccc(C(F)(F)F)c1)C(=O)O	5	0.1%	-0.8	5	1	-4.0
COc1ccc(C2C3=C(CC(C)(C)CC3=O)N(C)C3=C2C(=O)CC(C)(C)C3)cc1	-2	-1.3%	-0.4	6	-2	1.9
COc1cc(C(=O)N2CCN(S(=O)(=O)c3cccs3)CC2)cc(OC)c1C	-26	0.1%	-0.6	-6	-9	-3.7

Additional compounds.
smiles	Six1-Eya2 inh	PINK1 modulator	TRPML1 agonist	CtBP-E1A inh	D2 PAM	D2 ag
O=C(Nc1cc(F)ccc1F)c1ccc2c(=O)n3c(nc2c1)CCC3	-5	-1.1%	0.0	-9	-9	-0.5
CCOC(=O)CN(C(=O)Cn1nnc2ccccc21)C(C(=O)NCCOC)c1ccccc1 (stereo not drawn)	1	0.1%	-0.8	3	11	-0.1
CCn1c2ccccc2c2cc(/C=N/NC(=O)c3ccccc3C)ccc21	-8	6.6%	0.9	-15	-9	-6.3
CCc1n[nH]c(=O)n1Cn1c(CC)n[nH]c1=O	3	0.3%	-0.8	5	4	-2.8
COC(=O)c1ccc(SCc2ccccc2)nc1	9	3.3%	3.2	.	4	3.1
COc1cccc(C(=O)NCCSCc2ccccc2Cl)c1	18	-1.5%	1.8	.	-34	-1.5
CCNC(=O)N1CCN(C(=O)NCC)CC1	1	2.4%	-0.3	8	4	-2.0
CC(C)(C)OC(=O)N1CCC(NC(=O)c2nc[nH]c2C(=O)NCC(=O)OCc2ccccc2)CC1	8	-0.7%	2.4	-19	?	?
CCOC(=O)C(NC(C)=O)(Nc1ccc(S(=O)(=O)Nc2cc(C)nc(C)n2)cc1)C(F)(F)F (stereo not drawn)	5	1.1%	0.2	4	12	-2.5
CCOC(=O)C1=C(CNCc2ccc(C)cc2)NC(=O)NC1c1cc(C)ccc1C (stereo not drawn)	-12	5.6%[38.3 µM]	3.0	-13	-18	-0.4
COc1ccc(/C=C/C(=O)OCC(=O)N2c3ccccc3CC2C)cc1OC (stereo not drawn)	-1	3.2%	-0.9	0	-3	1.6
COc1ccc(-c2csc(Cc3nc(O)cs3)n2)cc1	-6	7.8%	-0.2	1	1	-6.9

Brought forward from above: 2 entries, then new ones.
smiles	Six1-Eya2 inh	PINK1 modulator	TRPML1 agonist	CtBP-E1A inh	D2 PAM	D2 ag
COc1ccc(/C=C/C(=O)OCC(=O)N2c3ccccc3CC2C)cc1OC (stereo not drawn)	-1	3.2%	-0.9	0	-3	1.6
COc1ccc(-c2csc(Cc3nc(O)cs3)n2)cc1	-6	7.8%	-0.2	1	1	-6.9
Cc1ccc(-c2nn(CCC(=O)O)cc2/C=C\C(=O)c2ccc(Br)cc2)cc1	10	-1.4%	0.7	0	-3	-0.8
Cc1nnc(SC(C)C)n(N)c1=O	2	4.2%	-1.0	1	5	-3.3
COC(=O)c1cccc(NC(=O)c2cnn(C)c2)c1	-5	-1.5%	1.3	5	-2	2.5
Cc1nc(SCC(=O)N(CC(C)C)C2CCS(=O)(=O)C2)c2c(C)c(C)sc2n1 (stereo not drawn)	-2	-1.4%	1.5	-5	5	-1.0
COc1ccc(C(=O)c2ccccc2)c(OCC(=O)NC2CC2)c1	2	-1.0%	0.2	3	-10	-1.8
O=C(OCCOCCN=C1NS(=O)(=O)c2ccccc21)C1CC(=O)N(c2ccccc2)C1 (stereo not drawn)	-1	0.9%	-0.3	-3	5	0.6
CC(=O)Oc1cc2c(cc1Cl)C(c1cccs1)CC1(CC(C)(C)NC(=S)N1)O2 (stereo not drawn)	0	-0.2%	1.9	0	-7	-0.4
O=C(CC(c1ccccc1)C1CCCCC1=O)c1ccco1 (stereo not drawn)	0	-0.6%	-0.1	11	-15	-1.6
O=C(O)CC12CC3CC(C1)CC(n1ncc(N4CCC5(CC4)OCCO5)c(Cl)c1=O)(C3)C2	28	1.0%	0.5	8	-4	-1.5
Cn1c(N)cc(=O)n(Cc2ccccc2)c1=O	4	1.3%	1.4	-9	-7	-3.8
N#C/C(=C/c1ccc(-c2ccc(Br)cc2)o1)C(=O)NC1CCCCC1	14	7.6%	-0.4	28	-4	0.3
CC(=O)c1cccc(S(=O)(=O)N2CCC(n3nnc4cc(F)ccc43)CC2)c1	-2	-3.1%	2.7	0	4	-2.5

(next part)
smiles	Six1-Eya2 inh	PINK1 modulator	TRPML1 agonist	CtBP-E1A inh	D2 PAM	D2 ag
COc1ccccc1N(C)S(=O)(=O)c1ccc(C(=O)Nc2nccs2)cc1	-1	2.6%	0.7	0	0	1.6
COc1cc(NC(=O)COC(C)=O)cc(OC)c1OC	-1	-0.4%	-0.2	-1	-8	-5.0
Cc1ccc(S(=O)(=O)N2C(=O)CCC2C(=O)NCc2ccco2)cc1 (stereo not drawn)	0	?	-0.2	-14	-14	-1.9
CCN1C(=O)[C@H]2[C@@H](c3ccc(C)cc3)N[C@]3(CCCN(Cc4ccc(OC)cc4)C3=O)[C@H]2C1=O	3	-0.2%	-0.1	4	-3	-9.9
O=c1[nH]cnc(O)c1C(c1ccc2c(c1)OCO2)c1c(O)nc[nH]c1=O	4	1.6%	1.0	.	0	-3.6
Cc1onc(-c2ccccc2)c1C(=O)N1CCCc2ccccc21	4	-5.6%[38.3 µM]	0.9	7	0	-0.7
Cc1nn(-c2ccccc2)c(C)c1NC(=O)COC(=O)Cc1ccccc1F	6	-0.5%	-0.6	9	-7	1.0
O=C(CCc1nnc(CCCCc2ccccc2)o1)NCCN1CCOC1=O	3	1.4%	-1.2	10	-2	0.2
Cc1ccc(OCC(=O)N2CCc3ccccc3C2)c(C)c1	-11	3.6%	0.9	-3	-16	-1.6
Cc1oc2cc3oc(=O)c(CC(=O)N[C@H](C(=O)N[C@@H](C(=O)O)c4ccccc4)C(C)C)c(C)c3cc2c1C	-5	-1.1%	.	1	-5	4.2
O=C(O)/C=C/c1cccc(NC(=O)c2ccc(Cl)cc2)c1	3	2.0%	0.3	23	-6	-13
COc1cccc(/C(O)=C2/C(=O)C(=O)N(CCN3CCOCC3)C2c2cccnc2)c1 (stereo not drawn)	-1	1.3%	-0.2	0	-2	-2.0

The closing three entries of the part above open the next one.
smiles	Six1-Eya2 inh	PINK1 modulator	TRPML1 agonist	CtBP-E1A inh	D2 PAM	D2 ag
Cc1oc2cc3oc(=O)c(CC(=O)N[C@H](C(=O)N[C@@H](C(=O)O)c4ccccc4)C(C)C)c(C)c3cc2c1C	-5	-1.1%	.	1	-5	4.2
O=C(O)/C=C/c1cccc(NC(=O)c2ccc(Cl)cc2)c1	3	2.0%	0.3	23	-6	-13
COc1cccc(/C(O)=C2/C(=O)C(=O)N(CCN3CCOCC3)C2c2cccnc2)c1 (stereo not drawn)	-1	1.3%	-0.2	0	-2	-2.0
O=C1NCCN1Cc1ccc(F)cc1	4	14%[38.3 µM]	-0.3	2	-2	0.8
Cc1ccc(S(=O)(=O)N2CCCCC2)cc1C(=O)Nc1ccccn1	-3	-0.3%	0.1	1	21	0.6
O=C(CSc1nnc(-c2ccccc2Cl)o1)N1CCOCC1	1	1.1%	0.5	3	3	3.0
CC1CC(C)CN(S(=O)(=O)c2ccccc2[N+](=O)[O-])C1 (stereo not drawn)	-3	3.0%	-1.1	-2	-11	-4.7
CCN(CC)S(=O)(=O)c1ccc2oc(C(=O)N3CCOCC3)c(C)c2c1	4	1.4%	-0.1	4	0	-2.1
CC(C)CCNC(=O)CSc1nnc(-c2ccc(S(=O)(=O)N3CCCC3)cc2)n1C	2	-3.3%[38.3 µM]	-0.5	12	-8	-2.4
COc1ccccc1C(CNC(=O)c1ccc(S(=O)(=O)N2CCCCC2)cc1)N(C)C (stereo not drawn)	6	-0.3%	0.7	1	-4	7.9
CC(=O)c1ccc(NC(=O)Nc2ccccc2)cc1	2	-1.2%[38.3 µM]	0.7	2	9	3.4
O=C(O)CNC(=O)C1(N2C(=O)c3ccccc3C2=O)CCCC1	1	-0.7%	-0.2	-1	-5	-1.5
CCCOc1ccc(C2(C(=O)O)CCCC2)cc1	1	0.6%	-0.2	5	-10	-2.6
O=C1/C(=C/c2cccnc2)Oc2cc(OS(=O)(=O)c3ccc(Cl)cc3)ccc21	2	20%[38.3 µM]	0.0	8	-8	2.0
COc1ccccc1-c1cc(C(=O)N2CCOCC2)no1	9	5.2%	-0.2	5	-1	9.9

New compounds follow.
smiles	Six1-Eya2 inh	PINK1 modulator	TRPML1 agonist	CtBP-E1A inh	D2 PAM	D2 ag
Cc1ccccc1N1CCN(C2=NC(=O)/C(=C/c3cn[nH]c3-c3ccccc3)S2)CC1	-3	2.3%	-0.4	0	-10	-7.4
CCN1C(=NCCCCO)N[C@@H](c2cccc(C(F)(F)F)c2)C(C(=O)OC)=C1C	-2	-0.7%	-0.6	3	-13	-2.0
Cc1cccc(C2NC(c3cccc(C)c3)C([N+](=O)[O-])C(C)(C)C2[N+](=O)[O-])c1 (stereo not drawn)	1	3.7%	2.0	1	-5	-4.3
Cc1ccc(SCC(=O)NC(=O)NCc2ccco2)c(C)c1	-8	0.3%	1.1	6	-6	-1.8
O=C(NCCc1ccccc1)C1CCC(CNS(=O)(=O)c2cccs2)CC1 (stereo not drawn)	8	-0.4%	0.9	6	-4	7.7
C=CCN1CN(S(=O)(=O)c2cccs2)c2nc3ccccc3nc21	-2	?	-0.2	3	-7	0.6
CC(C)COP(=O)(CNC(=O)CN1C(=O)c2ccccc2S1(=O)=O)OCC(C)C	10	0.6%	-0.3	3	-6	-3.0
COC(=O)c1ccc2nc(-c3ccc(Cl)cc3)c(Cc3ccccc3OC)n2c1	5	1.6%	0.1	3	0	-1.5
CCOc1ccccc1N(C(=O)c1snc(C(N)=O)c1N)C(C(=O)NC1CCCC1)c1cccs1 (stereo not drawn)	-3	1.7%	2.2	-14	-6	-3.6
